# Screening data: PubChem, National Center for Advancing Translational Sciences (NCATS)
# HPGD inh = qHTS Assay for Inhibitors of HPGD (15-Hydroxyprostaglandin Dehydrogenase). 15-hydroxyprostaglandin dehydrogenase [NAD(+)] (Homo sapiens), P15428. purified HPGD, NADH fluorescence kinetic, PGE2 substrate. Potency, µM, for inactives: at the top dose activity change, negative = inhibition, most hits filed as inhibitors. 150,000 compounds, 4.3% hits. AID 894, 2007; active = well fitted inhibition curve with a large enough effect (not every such curve was filed as active); inconclusive = small, poorly fitted or top-dose-only effect, or another doubt; inactive = no such curve, though single readings can be large or run the other way;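 further: top concentration of the series not given in the record; plate controls included wells without enzyme; inactives centre near -10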
# Target sequence (P15428 whole entry, looked up): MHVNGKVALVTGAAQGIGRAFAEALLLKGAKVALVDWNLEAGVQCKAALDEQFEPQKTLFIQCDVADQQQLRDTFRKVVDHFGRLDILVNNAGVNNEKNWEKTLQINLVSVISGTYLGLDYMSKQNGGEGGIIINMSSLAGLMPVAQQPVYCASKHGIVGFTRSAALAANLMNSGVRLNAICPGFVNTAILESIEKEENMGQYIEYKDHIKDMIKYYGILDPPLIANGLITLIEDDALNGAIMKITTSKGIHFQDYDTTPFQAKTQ
#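 20 nM HPGD preincubated 15 min at room temperature with compound in 50 mM Tris-HCl pH 8, 0.01% Tween 20. Started with 1 mM NAD+ and 30 uM prostaglandin E2; NADH fluorescence (360/450 nm) read 5 times over 30-s intervals, last minus first.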
# * hit, by the source's call; ? = inconclusive; & = joins results of further samples. On the % scale 0 is the no-effect control and ±100 the full control effect; potency means the concentration at half of the fitted maximal effect. This is a subset; the hit share may differ from the screen's.
HPGD inh	Structure
-15.9%	O=C(COC(=O)Cc1c(Cl)cccc1Cl)Nc1ccccc1-c1ccccc1
-20.6%	O=C(CCn1c(=O)oc2ccccc21)Nc1cccc(Cl)c1
-7.0%	CCC(C)NC(=O)CC(NS(=O)(=O)c1ccc(Cl)cc1)c1ccco1 (stereo not drawn)
-7.2%	COc1cc2c(cc1NC(=O)CCCN1C(=O)CCC1=O)oc1ccccc12
-1.9%	O=C1N/C(=C/c2cccn2-c2ccc(F)cc2)C(=O)N1Cc1ccccc1F
?	CCC1C(=O)c2ccccc2N(C)C1=O (stereo not drawn)
-2.1%	O=C(CSc1nnc(-c2cccnc2)n1Cc1ccccc1)NCc1ccccc1
-0.9%	CNC(=O)COC(=O)c1ccccc1Oc1ccccc1
-4.6%	OB(O)c1csc2ccccc12
-0.9%	CCc1cccc2c3c([nH]c12)[C@@](CC)(CC(=O)O)OCC3
-8.7%	COCCc1nnc(NC(=O)Cc2ccccc2)s1
-2.7%	CCSc1nnc(Cn2c(=O)sc3ccccc32)n1-c1ccc(OC)cc1
1.9%	Cc1cn(COC/C=C/c2ccccc2)c(=O)[nH]c1=O
-8.6%	Cc1cc(C)c(NC(=O)C2CCCN2CCC(C)C)c(C)c1 (stereo not drawn)
-8.5%	Cc1ccc(NC(=O)c2cc(Cl)ccc2[N+](=O)[O-])cc1C
-13.1%	COc1ccc(C(CC(=O)c2ccccc2)S(=O)(=O)c2ccc(C)cc2)cc1 (stereo not drawn)
-17.0%	O=C(Nc1nc2ccccc2[nH]1)C1CCN(S(=O)(=O)c2cccs2)CC1
-2.1%	COC(=O)[C@H](CCSC)NC(=O)NCc1ccccc1F
-1.8%	[N-]=[N+]=N[C@@H]1[C@H](O)[C@H](CO)O[C@@H]1n1cnc2c(N)ncnc21
-6.9%	CCC1=C2CC[C@H]3C(=O)N(CC)C(=O)[C@H]3[C@H]2[C@@]2(Cc3ccccc3)C(=NCC3CC3)OC(=O)N2C1=O
-19.6%	O=C(OCCN1C(=O)c2cccc3c(N4CCOCC4)ccc(c23)C1=O)c1cccc(Cl)c1
-12.8%	COC(=O)c1ccc(NC(=O)CCn2cccc2)cc1
25.1µM*	Cc1ccc(S(=O)(=O)C2(C(=O)N3CCCC(C)C3)CC2)cc1 (stereo not drawn)
2.7%	Cc1ncc(C[n+]2csc(CCO)c2C)c(N)n1
-5.1%	CC1(C)CC(CC(=O)Nc2ccc([N+](=O)[O-])cc2)C(=O)O1 (stereo not drawn)
-14.8%	Cc1cc(C)nc(/N=C2\NC(=O)CC(C(=O)O)N2CCc2c[nH]c3ccccc23)n1 (stereo not drawn)
?	CCOC(=O)c1ccc(N2C(=O)C(O)=C(C(C)=O)C2c2ccc(O)c(OC)c2)cc1 (stereo not drawn)
-15.3%	O=C(CCCn1c(=O)oc2ccccc21)N1CCc2ccccc2C1
-9.2%	CCCC1(C(=O)O)NC(c2ccccc2O)C2C(=O)N(Cc3ccccc3)C(=O)C21 (stereo not drawn)
-3.8%	COc1cccc(C(=O)COc2ccccc2-c2ccccc2)c1

# Two consecutive records already listed, for reference:
HPGD inh	Structure
-15.9%	O=C(COC(=O)Cc1c(Cl)cccc1Cl)Nc1ccccc1-c1ccccc1
-20.6%	O=C(CCn1c(=O)oc2ccccc21)Nc1cccc(Cl)c1

# Looked up above:
# For HPGD inh, `O=C(CCn1c(=O)oc2ccccc21)Nc1cccc(Cl)c1` has -20.6%
# For HPGD inh, `CCc1cccc2c3c([nH]c12)[C@@](CC)(CC(=O)O)OCC3` has -0.9%
# For HPGD inh, `Cc1cc(C)nc(/N=C2\NC(=O)CC(C(=O)O)N2CCc2c[nH]c3ccccc23)n1` (stereo not drawn) has -14.8%
# For HPGD inh, `COCCc1nnc(NC(=O)Cc2ccccc2)s1` has -8.7%
# For HPGD inh, `COC(=O)[C@H](CCSC)NC(=O)NCc1ccccc1F` has -2.1%
# For HPGD inh, `O=C1N/C(=C/c2cccn2-c2ccc(F)cc2)C(=O)N1Cc1ccccc1F` has -1.9%
# For HPGD inh, `Cc1ccc(NC(=O)c2cc(Cl)ccc2[N+](=O)[O-])cc1C` has -8.5%

# Further records:
HPGD inh	Structure
-11.1%	Cc1ccc(Oc2cc(NC(=O)CCCn3nc([N+](=O)[O-])c(Cl)c3C)cc([N+](=O)[O-])c2)cc1
0.7%&-6.1%	CC1(C)S[C@@H]2[C@H](NC(=O)[C@H](C(=O)O)c3ccsc3)C(=O)N2[C@H]1C(=O)O
-3.5%	O=C(O)CCC(=O)Nc1cccc(C(=O)Nc2cccc(Cl)c2)c1
-3.3%	CCN(CC)c1ccc(NC(=O)c2cccc(F)c2)c(C)c1
2.8%	CC1CC2=C(C(=O)O1)C(C)Nc1ccccc1N2 (stereo not drawn)
-10.8%	CCCCCC[C@@H](O)C/C=C\CCCCCCCC(=O)O
-7.0%	Cc1ccc(Cn2nnnc2CN2CCC(c3nc4ccc(Cl)cc4[nH]3)CC2)cc1
-13.1%	Cc1cccc(COCC(Cc2ccccc2)N2CCN(C(=O)c3cccc(C)c3)CCC2=O)c1 (stereo not drawn)
-7.8%	CCN(CC)S(=O)(=O)c1ccc(C)c(NC(=O)COc2ccc(Br)cc2Cl)c1
-8.2%&-14.4%	CCOC(=O)c1[nH]c(C)c(CCC(=O)O)c1C
-7.3%	O=c1cc(NS(=O)(=O)c2ccccc2)nc(SCc2ccc(Cl)cc2)[nH]1
-4.9%	Cc1cc(NC(=O)CCC(=O)N(CC(=O)NCC2CCCO2)c2ccccc2C)no1 (stereo not drawn)
-14.4%	COc1ccc(C(=O)NNC(=O)c2ccncc2)cc1
-4.5%	CC1C2C(c3ccccc3)N(C)C(=O)N(C)C2N(C)C(=O)N1C (stereo not drawn)
0.1%	CCC(C)NS(=O)(=O)c1ccc(S(=O)(=O)N(CC(=O)Nc2ccccc2)CC2CCCO2)cc1 (stereo not drawn)
-1.2%	COc1ccc(C2=NOC3(CC(=O)N(c4ccc(C)cc4)C3=O)C2)c(OC)c1 (stereo not drawn)
-3.8%	COc1cc(NC(=O)CCn2c(=O)[nH]c3ccsc3c2=O)cc(OC)c1
-7.4%	COc1ccc(-c2nc(N)n(C(=O)c3ccc(C)cc3)n2)cc1
-13.5%	CCN(CC)CCN1CCn2c3c(c4cc(C)ccc42)CCCC31 (stereo not drawn)
-2.1%	Cc1cc(N(CC(=O)NC2CC2)S(C)(=O)=O)ccc1Br
-10.0%	CC(=O)NC1=NC(=O)C(C)S1 (stereo not drawn)
?	CCOC(=O)c1c(-c2ccccc2)csc1NC(=O)c1cccc(N2C(=O)CCC2=O)c1
-14.2%	COC(=O)[C@H](Cc1ccccc1)NC(=O)NCCC1=CCCCC1
2.7%	NS(=O)(=O)c1ccc(CCNC(=O)[C@@H]2CCCN2S(=O)(=O)c2ccccc2F)cc1
-4.2%	O=C(Nc1nccs1)C1CCN(S(=O)(=O)c2cnc[nH]2)CC1
-3.9%	NCCCCCc1cnc[nH]1
-19.6%	c1ccc(-c2ccc(-c3nc(-c4ccncc4)no3)cc2)cc1
-21.4%	CC1CCN(C(=O)C2CCN(S(=O)(=O)c3cccnc3)CC2)CC1
?	CCc1c(C)sc(NC(=O)c2cccs2)c1C(=O)OC(C)C
-11.8%	CSCCC(NS(=O)(=O)c1ccc(Cl)cc1)C(=O)OCC(=O)N(C(C)C)C(C)C (stereo not drawn)
-15.1%	CS(=O)(=O)Nc1ccc(C(=O)Nc2ccc3c(c2)OCCO3)cc1
-29.2%	Cc1cccnc1Nc1nc(-c2ccc(O)c(O)c2)cs1
-9.5%	CC(Oc1ccc(F)cc1)C(=O)NN (stereo not drawn)
?	O=C(CN1CCCC1)N/N=C/c1ccc(-c2cccc(Cl)c2)o1
-19.7%	O=C1CN(C(=O)COc2ccccc2F)c2ccccc2N1
-14.6%	CN(C)c1ccc(C(CNC(=O)c2ccc(C#N)cc2)c2c[nH]c3ccccc23)cc1 (stereo not drawn)
-1.6%	CC1(c2ccccc2)CC2CC(c3ccccc3)N1O2 (stereo not drawn)
-18.2%	CC(=O)c1cnc2c(-c3ccc(Cl)cc3)c(C)nn2c1C
?	O=C(CSCc1cccs1)N1CCCC1
-21.1%	C=CCn1cnc2c(c1=O)c1nc3ccccc3nc1n2/N=C/c1cccc(OC)c1
-16.4%	Cc1ccccc1N=C(NOCc1ccc(Cl)cc1Cl)c1nonc1N
-1.3%	O=C(c1cc(S(=O)(=O)N2CCCCC2)ccc1F)N1CCCCC1
-6.8%	COc1ccc(CN(C(=O)c2oc3ccccc3c2C)C2CCS(=O)(=O)C2)cc1OC (stereo not drawn)
1.5%	Cc1cc(C)n2nc(S(=O)(=O)NC3CCCCC3)nc2n1
?	O=C1CSC(c2cn(-c3ccccc3)nc2-c2cc3ccccc3oc2=O)N1Cc1ccco1 (stereo not drawn)
-17.7%	OC[C@H]1O[C@@H](n2cnc3c(NC4CCCCC4)ncnc32)[C@H](O)[C@@H]1O
-3.3%	O=C(O)CCc1nc(-c2ccccc2)no1
-1.2%	CCCCc1nnc(NC(=O)CS(=O)(=O)Cc2ccccc2)s1
-20.0%	COC(=O)C(C(=O)OC)=C(/C=C/N(C)C)N(C)C
-5.3%	Cc1ccc(C(=O)/C=C2\NCCNC2=O)cc1
?	COc1ccc(NC(=O)c2nnn(Cc3ccc(SC)cc3)c2N)c(OC)c1
0.6%	O=C(NN/C(=N/S(=O)(=O)c1ccc(Cl)cc1)c1ccccc1)c1ccc(O)cc1
?	Cc1ccc(/C=c2\s/c(=C(/C#N)C(=O)N3CCCC3)n(Cc3ccco3)c2=O)s1
?	COc1cc2c(cc1OC)C1(Nc3c-2c(Cc2ccccc2)nn3-c2ccccc2)C(=O)Nc2ccccc21 (stereo not drawn)
-9.6%	COc1ccc(-c2csc(N(CCc3ccc(OC)c(OC)c3)C(=O)COc3ccccc3)n2)cc1
?	CC(Oc1ccc(C(C)(C)C)cc1)c1ccnc2nc(/N=C/N(C)C)nn12 (stereo not drawn)
-7.0%	CC(C)C(c1nnnn1Cc1ccco1)N1CCC(C(N)=O)CC1 (stereo not drawn)
-22.9%	Cc1c(NC(=O)Oc2ccccc2)sc(=S)n1C
15.8µM*	O=C(NCc1ccc2c(c1)OCO2)c1cccc(F)c1
-9.5%	O=C(Cn1c(SCC(=O)N2CCCc3ccccc32)nc2ccccc21)N1CCCC1

# Following part.
HPGD inh	Structure
?	O=C(c1cc2c(ccc3ccccc32)oc1=O)N1CCCC1
-11.2%	COc1ccccc1NC(=O)Nc1c(C)n(C)n(-c2ccccc2)c1=O
-27.5%	COc1ccccc1CC(=O)Nc1ccc(O)cc1C(=O)O
-1.9%	O=C(CSc1ccccc1C(=O)O)NC1CCCCCCC1
-12.7%	C/C=C/c1ccc(OCCCN2C(=O)NC(C)(C)C2=O)c(OC)c1
-13.2%	O=C(Nc1cc(Cl)ccc1N1CCCCC1)c1cccs1
?	COc1ccc(-c2cc(C(F)(F)F)nc(SCc3cccc(C(=O)O)c3)n2)cc1
-3.6%	CCOc1nc(NC(C)C)nc(NC(C)C)n1
-13.2%	COC(=O)COc1ccc2c(=O)c(Oc3ccccc3)c(C)oc2c1
0.2%	CCOC(=O)c1cnn(-c2cc(C)nc3c(-c4ccccc4)c(C)nn23)c1N
-16.1%	COc1ccc(C)cc1NS(=O)(=O)c1cn(C)c(=O)n(C)c1=O
-6.5%	CCCC(=O)Nc1ccc(N2CCN(C(=O)c3cccs3)CC2)cc1
-13.0%	COc1ccc(C2C(C#N)=C(N)Oc3c2oc(CO)cc3=O)c(OC)c1OC (stereo not drawn)
-26.7%	CC1(c2ccc(OCC#N)cc2)C=C(c2ccc(OCC#N)cc2)n2nc(C(F)(F)F)nc2N1 (stereo not drawn)
-6.9%	COc1cc(NC(=O)c2cccc([N+](=O)[O-])c2C)ccc1NC(=O)c1ccco1
-18.6%	COC(=O)c1c(-c2cc(OC)c(OC)c(OC)c2)c2ccc(OCc3ccccn3)cc2c(=O)n1-c1ccc(N)cc1
?	CN1c2ccsc2C(O)=C(C(=S)Nc2ccc(F)c(Cl)c2)S1(=O)=O
?	CN(C(=O)c1cccc(Nc2ccc(-c3ccc4c(c3)OCCO4)nn2)c1)C1CCCCC1
-16.8%	CC(=NCC1CCCO1)c1c(O)[nH]c(=O)[nH]c1=O (stereo not drawn)
-25.8%	CCOC(=O)C1CCCN(C(=O)CSc2ccccc2)C1 (stereo not drawn)
-6.5%	O=S(=O)(c1cnccc1N1CCN(CCO)CC1)N1CCCC1
-8.2%	O=C(O)c1ccc(S(=O)(=O)N2CCCCCC2)cc1
-3.7%	Cc1ccnc(NC2(C(F)(F)F)N=C(c3ccccc3)NC2=O)c1 (stereo not drawn)
-19.8%	CCCCCc1c(C)nc(NCc2ccccc2)[nH]c1=O
-6.6%	Cc1ccc(NC(=O)CSc2nnc(-c3cnccn3)n2Cc2ccco2)cc1C
-16.6%	O=C(CSc1ncnc2ccccc12)N1CCCC1
31.6µM*	Cc1oc(=O)c(NC(=O)c2cccc(Cl)c2)cc1C(=O)c1ccccc1
-4.9%	O=C(Nc1ccc(F)cc1)C(Sc1nc2ccccc2[nH]1)c1ccccc1 (stereo not drawn)
-12.4%	CCCc1nnc(NC(=O)c2c(O)c3cccc4c3n(c2=O)CCC4)s1
0.0%	C=C1CC23C[C@H]4[C@@H]5[C@@]6(C)C[C@H](OC(=O)c7ccccc7)[C@@H](OC(C)=O)[C@]57[C@@H]2[C@@H](OC(C)=O)[C@H]1[C@@H](O)[C@H]3[C@H]7N4C6
4.2%	O=C(CCNc1ccc(F)cc1)c1cccc([N+](=O)[O-])c1
?	Cc1noc(C)c1-c1nc(Nc2ccncc2)c2ccccc2n1
-7.9%	CN(C)C(=O)CCN1CCOCC1
-2.5%	COc1ccccc1NC(=O)CSc1ccc2nnc(-c3ccccn3)n2n1
-5.0%	Cc1ccc(S(=O)(=O)Nc2nc(C)c(NC(=O)Nc3ccc(Cl)cc3Cl)s2)cc1
-10.7%	CCN(CC)S(=O)(=O)c1ccc(F)c(C(=O)NCCC(C)C)c1
